Screening data (PubChem BioAssay)
Env fusion inh: inhibitors of HIV Env-mediated cell fusion | 360,000 tested, 1.1% active | HeLa-JRFL Env/CEM21 cell fusion, luciferase | inhibition, % at 12.3 µM;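 active = mean replicate inhibition score of at least 50 and every replicate individually at or above 50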;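 also: 0% = plate neutral controls and 100% = maraviroc near 300 nM; one replicate is shown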
* marks the source's active call; other numbers are inactive results; [ ] = another dose, or the depositor's remark.

Env fusion inh	structure
1	O=C(NCC1CCN(C(=O)C(=O)c2cc3ccccc3o2)CC1)c1ccc2c(c1)OCO2
-16[16.7 µM]	COc1ccc(NC(=O)N[C@H]2CC[C@H](CC(=O)NC3CCC3)O[C@H]2CO)cc1
1[16.7 µM]	C[C@@H]1CCCCO[C@@H](CN(C)C)[C@H](C)CN([C@@H](C)CO)C(=O)c2cc(NC(=O)CCCN(C)C)ccc2O1
21[16.7 µM]	COc1ccc(C#Cc2ccc3c(c2)[C@H]2[C@H](CCN2C(=O)C2CCC2)[C@@H](CO)N3)cc1
-7	COCC1CN(CCc2ccc(F)cc2)S(=O)(=O)c2c(OCCN3C(=O)[C@@H]4[C@H](C3=O)[C@@H]3C=C[C@H]4C3)cccc2O1 (stereo partly drawn)
3[16.7 µM]	COC(=O)[C@H]1[C@H](CO)[C@H]2Cn3c(cccc3=O)[C@H]2N1CC1CCOCC1
2[16.7 µM]	CO[C@@H]1CN(C)C(=O)c2ccc(NC(=O)Nc3c(C)noc3C)cc2OC[C@H](C)N(CC2CC2)C[C@H]1C
18[16.7 µM]	COc1ccccc1S(=O)(=O)N[C@H]1C=C[C@@H](CC(=O)N2CCCCC2)O[C@@H]1CO
-14	CN(CCO)C(=O)c1nc[nH]c1C(=O)N1CCN(c2ccccc2)CC1
-1	O=c1[nH]c(-c2ccccc2)cn1C1CCN(Cc2ccc(-c3nc4ccccc4nc3-c3ccccc3)cc2)CC1
16[16.7 µM]	C[C@@H]1CN([C@H](C)CO)C(=O)c2cccc(NC(=O)c3nc4ccccc4s3)c2O[C@H]1CN(C)Cc1ccccc1
9[16.7 µM]	CCc1cccc(NC(=O)O[C@H]2[C@H](OC(=O)Nc3ccccc3-c3ccccc3)[C@H](OC(=O)Nc3ccccc3-c3ccccc3)[C@@H](OC)O[C@@H]2CO)c1
0	COC(=O)c1cc2c(c3c4cc(OC)ccc4n(S(=O)(=O)c4ccc(F)cc4)c13)C(=O)N(Cc1ccccc1)C2
9[16.7 µM]	COCC(=O)N(C)C[C@H]1Oc2cc(C#Cc3cccnc3)ccc2S(=O)(=O)N([C@@H](C)CO)C[C@H]1C
-8	COCCN(Cc1ccc(C)cc1)C(=O)[C@@H](Cc1ccccc1)NC(=O)[C@H]1O[C@@H](n2ccc(=O)[nH]c2=O)[C@H](O)[C@@H]1O
70*	COC(=O)[C@]12C[C@H](CC(=O)NCc3ccc(C)o3)C(=O)N(CCC3=CCCCC3)C1=C[C@H](C(C)(C)C)O[C@@H]2C

Some of the entries above, set out differently.
compound	Env fusion inh
C[C@@H]1CCCCO[C@@H](CN(C)C)[C@H](C)CN([C@@H](C)CO)C(=O)c2cc(NC(=O)CCCN(C)C)ccc2O1	1[16.7 µM]
COc1ccc(C#Cc2ccc3c(c2)[C@H]2[C@H](CCN2C(=O)C2CCC2)[C@@H](CO)N3)cc1	21[16.7 µM]
COCC1CN(CCc2ccc(F)cc2)S(=O)(=O)c2c(OCCN3C(=O)[C@@H]4[C@H](C3=O)[C@@H]3C=C[C@H]4C3)cccc2O1 (stereo partly drawn)	-7
COC(=O)[C@H]1[C@H](CO)[C@H]2Cn3c(cccc3=O)[C@H]2N1CC1CCOCC1	3[16.7 µM]
CO[C@@H]1CN(C)C(=O)c2ccc(NC(=O)Nc3c(C)noc3C)cc2OC[C@H](C)N(CC2CC2)C[C@H]1C	2[16.7 µM]
COc1ccccc1S(=O)(=O)N[C@H]1C=C[C@@H](CC(=O)N2CCCCC2)O[C@@H]1CO	18[16.7 µM]
CN(CCO)C(=O)c1nc[nH]c1C(=O)N1CCN(c2ccccc2)CC1	-14
O=c1[nH]c(-c2ccccc2)cn1C1CCN(Cc2ccc(-c3nc4ccccc4nc3-c3ccccc3)cc2)CC1	-1
C[C@@H]1CN([C@H](C)CO)C(=O)c2cccc(NC(=O)c3nc4ccccc4s3)c2O[C@H]1CN(C)Cc1ccccc1	16[16.7 µM]
CCc1cccc(NC(=O)O[C@H]2[C@H](OC(=O)Nc3ccccc3-c3ccccc3)[C@H](OC(=O)Nc3ccccc3-c3ccccc3)[C@@H](OC)O[C@@H]2CO)c1	9[16.7 µM]
COC(=O)c1cc2c(c3c4cc(OC)ccc4n(S(=O)(=O)c4ccc(F)cc4)c13)C(=O)N(Cc1ccccc1)C2	0
COCC(=O)N(C)C[C@H]1Oc2cc(C#Cc3cccnc3)ccc2S(=O)(=O)N([C@@H](C)CO)C[C@H]1C	9[16.7 µM]

More entries:
Env fusion inh	structure
0[16.7 µM]	O=C(NC1Cc2ccccc2C1)[C@@H]1[C@@H](CO)[C@@H]2Cn3c(ccc(C4=CCCC4)c3=O)[C@H]1N2
1	COCc1[nH]nc2c1C(c1ccccc1)NC2=O (stereo not drawn)
23[16.7 µM]	COC(=O)C[C@H]1CC[C@@H]2[C@@H](COc3ccc(NS(=O)(=O)c4ccccc4Cl)cc3C(=O)N2C)O1
11[16.7 µM]	CC(C)(C)[S@@](=O)N1Cc2cc(C(=O)NCc3ccc4c(c3)OCO4)nc(-c3cccc(-c4cccnc4)c3)c2[C@H]1CCO
-16[16.7 µM]	O=C(C[C@H]1C[C@@H]2c3cc(NC(=O)Nc4ccccc4)ccc3O[C@@H]2[C@@H](CO)O1)NCc1ccccc1
0[16.7 µM]	C[C@@H]1CCCCO[C@@H](CN(C)C(=O)c2ccccc2)[C@H](C)CN([C@H](C)CO)C(=O)c2cc(NC(=O)c3ccccc3)ccc2O1
10[16.7 µM]	CO[C@H]1CN(C)C(=O)c2cc(NC(=O)NC(C)C)ccc2OC[C@@H](C)N(C(=O)C2CCC2)C[C@@H]1C
0[16.7 µM]	O=C(Nc1cc(F)ccc1F)N[C@H]1CC[C@@H](CCn2cc(C3CC3)nn2)O[C@H]1CO
-7[16.7 µM]	O=C(C[C@H]1C[C@H]2c3cc(NC(=O)c4ccc5c(c4)OCO5)ccc3O[C@H]2[C@@H](CO)O1)NCc1cc(F)ccc1F
0[16.7 µM]	C[C@H](O)C#Cc1cnc2c(c1)C(=O)N([C@@H](C)CO)C[C@@H](C)[C@H](CN(C)C(=O)Cc1ccncc1)O2
-13	O=C1NC(c2ccccc2)c2c(-c3ccccc3)n[nH]c21 (stereo not drawn)
-3[16.7 µM]	C[C@@H]1CCCCO[C@@H](CN(C)C(=O)Nc2ccc3c(c2)OCO3)[C@@H](C)CN([C@@H](C)CO)C(=O)c2cc(NC(=O)CCCN(C)C)ccc2O1
8[16.7 µM]	COc1cccc(CNC(=O)c2cc3c(c(-c4cccc(-c5ccncc5)c4)n2)[C@H](CCO)N([S@@](=O)C(C)(C)C)C3)c1
-6[16.7 µM]	COc1ccc(S(=O)(=O)Nc2ccc3c(c2)[C@@H]2C[C@@H](CC(=O)NCC4CC4)O[C@@H](CO)[C@@H]2O3)cc1
10[16.7 µM]	C[C@@H]1CCCCO[C@H](CN(C)Cc2ccccc2)[C@H](C)CN([C@H](C)CO)C(=O)c2cc(NC(=O)c3ccncc3)ccc2O1
-4	Cc1c(CN2CCN(c3ncc(Cc4ccccc4)cn3)CC2)c(=O)n(-c2ccccc2)n1C
-11[16.7 µM]	CNC[C@H]1Oc2ccc(NC(=O)Nc3c(C)noc3C)cc2CC(=O)N([C@H](C)CO)C[C@H]1C
-12[16.7 µM]	C[C@@H]1CCCCO[C@H](CN(C)Cc2ccncc2)[C@@H](C)CN([C@H](C)CO)C(=O)c2cc(NC(=O)CCCN(C)C)ccc2O1
7[16.7 µM]	COc1ccc(CN(C)C[C@@H]2OCCCC[C@H](C)Oc3ccc(N(C)C)cc3C(=O)N([C@H](C)CO)C[C@H]2C)cc1
17	CC(C)(C)OC(=O)N1C[C@@]23C[C@H](c4cccc(F)c4)[C@@H](C[C@@H]2S1(=O)=O)O3
-2[16.7 µM]	CC(C)NC(=O)N(C)C[C@@H]1OCCCC[C@H](C)Oc2ccc(NC(=O)NC3CCCCC3)cc2C(=O)N([C@@H](C)CO)C[C@H]1C
-116[16.7 µM]	CCCC(=O)Nc1ccc2c(c1)C(=O)N(C)C[C@@H](OC)[C@@H](C)CN(C(=O)c1ccccn1)[C@@H](C)CO2
-22	Cc1cc(Br)c2nc(-c3ccc(Cl)cc3)c(Cc3cccc(Cl)c3)n2c1
14[16.7 µM]	C[C@H](CO)N1C[C@H](C)[C@@H](CN(C)C(=O)c2ccncc2)Oc2ncc(-c3ccc(C(=O)N(C)C)cc3)cc2C1=O
11[16.7 µM]	COc1ccc(S(=O)(=O)Nc2ccc3c(c2)[C@H]2C[C@H](CC(=O)NCC4CC4)O[C@H](CO)[C@H]2O3)cc1
-3[16.7 µM]	CC(C)NC(=O)Nc1ccc2c(c1)C(=O)N([C@H](C)CO)C[C@H](C)[C@H](CN(C)C)OCCCC[C@@H](C)O2
3	O=C(Nc1cccc(Cl)c1)NN(c1ccccc1)C1CCS(=O)(=O)C1 (stereo not drawn)
-19[16.7 µM]	C[C@H]1CN([C@@H](C)CO)C(=O)Cc2cc(NC(=O)Cc3cn(C)c4ccccc34)ccc2O[C@H]1CN(C)Cc1ccc(-c2ccccc2)cc1
-16[16.7 µM]	C[C@H](CO)N1C[C@H](C)[C@@H](CN(C)Cc2ccc(C(F)(F)F)cc2)Oc2ccc(NC(=O)CCCN(C)C)cc2CC1=O
5	CN1C(=O)C2CC(O)C(SC3CC4C(=O)N(C)C(=O)C4CC3O)CC2C1=O (stereo not drawn)
5[16.7 µM]	COc1ccccc1S(=O)(=O)N[C@H]1C=C[C@H](CC(=O)N2CCCCC2)O[C@H]1CO
-7	O=C(NCCCCC(NC(=O)c1ccccc1)C(=O)O)OCc1ccccc1 (stereo not drawn)
12[16.7 µM]	C[C@@H]1CN([C@@H](C)CO)C(=O)c2ccccc2-c2ccccc2CO[C@H]1CN(C)C(=O)Cc1ccccc1
14[16.7 µM]	Cc1ccc(S(=O)(=O)Nc2ccc3c(c2)C(=O)N([C@@H](C)CO)C[C@@H](C)[C@H](CN(C)S(=O)(=O)c2ccc(F)cc2)O3)cc1
1[16.7 µM]	COc1ccc(OC)c(NC(=O)CN=[N+]=[N-])c1
23[16.7 µM]	CCCNC(=O)N1C[C@@H](C)[C@H](OC)CN(C)C(=O)c2ccc(NC(=O)CC)cc2OC[C@@H]1C
12[16.7 µM]	CN(C)C(=O)C[C@H]1C[C@H]2c3cc(NC(=O)Nc4ccc(F)cc4)ccc3O[C@H]2[C@@H](CO)O1
54	C#CCNC(=O)C[C@H]1C[C@@]2(C(=O)OC)C(=C[C@H](C(C)(C)C)O[C@@H]2C)N(CCC2=CCCCC2)C1=O
64*[16.7 µM]	CO[C@@H](CN(C)S(=O)(=O)c1ccc(Cl)cc1)[C@@H](C)CN([C@H](C)CO)S(=O)(=O)c1cccc(Cl)c1
-9[16.7 µM]	O=C([C@@H]1N[C@@H]2c3ccc(-c4ccccc4F)c(=O)n3C[C@@H]2[C@H]1CO)N1CCc2ccccc2C1
-78	Clc1ccc(-c2csc(NCC3CCCO3)n2)cc1 (stereo not drawn)
-17	CC(CCl)n1c(=O)c2ccccc2n1C(=O)c1ccccc1 (stereo not drawn)
-4	CC(C)(C)n1nc(C2CC2)c(Br)c1NC(=O)c1ccc(Cl)cc1
-1[16.7 µM]	O=C(NCc1nc2ccccc2[nH]1)C1=C[C@@H](c2ccc3c(c2)OCO3)C[C@@H](OCCCCO)O1
-9	COC(=O)[C@]12C[C@H](CC(=O)NCc3cccc(C(F)(F)F)c3)C(=O)N(Cc3ccc4c(c3)OCO4)C1=C[C@H](COCc1ccccc1)O[C@@H]2C
-11[16.7 µM]	COc1ccc(NC(=O)N(C)C[C@H]2Oc3c(NS(=O)(=O)c4ccccc4)cccc3C(=O)N([C@H](C)CO)C[C@H]2C)cc1
-6[16.7 µM]	CN1C(=O)c2cc(NC(=O)C3CCOCC3)ccc2OC[C@@H]2O[C@H](CC(=O)NCC3CCCCC3)CC[C@@H]21
-22[16.7 µM]	COc1ccc(S(=O)(=O)N(C)C[C@@H]2Oc3c(NC(=O)c4nc5ccccc5s4)cccc3C(=O)N([C@@H](C)CO)C[C@H]2C)cc1
-16	COc1ccc(OCC2CN(Cc3ccccc3)S(=O)(=O)CCO2)cc1 (stereo not drawn)
45[16.7 µM]	CN1c2ccc(-c3cccc(C#N)c3)cc2[C@H]2[C@H](CCN2C(=O)C2CCCCC2)[C@H]1CO
62*[16.7 µM]	COc1ccc([Si](C)(C)[C@H]2[C@H](CCO)O[C@@]3(C(=O)N(Cc4cccc(N5CCOC5=O)c4)c4ccccc43)[C@@H]2C)cc1
17[16.7 µM]	N#C[C@H]1[C@@H](c2ccc(C3=CCCCC3)cc2)[C@@H](CO)N1C(=O)NC1CCCC1
-7[16.7 µM]	C[C@@H]1CCCCO[C@@H](CN(C)S(C)(=O)=O)[C@@H](C)CN([C@@H](C)CO)C(=O)c2cc(NC(=O)Cc3ccccc3)ccc2O1
-5	COC(=O)/C=C1\Nc2ccc(Cl)cc2C(=O)NC1=O
4[16.7 µM]	COCC(=O)N(C)C[C@@H]1Oc2cc(-c3ccccc3F)ccc2S(=O)(=O)N([C@@H](C)CO)C[C@@H]1C
3	Cc1cc(O)cc(=O)n1-c1cccc(F)c1

Later entries:
Env fusion inh	structure
-74	COC(=O)C1=C(C)N(C)C(=NCc2ccc(C(F)(F)F)cc2)NC1c1ccccc1C(F)(F)F (stereo not drawn)
10[16.7 µM]	CN1[C@@H]2c3ccc(-c4ccncc4)c(=O)n3C[C@H]1[C@H](CO)[C@H]2C(=O)N1CCC(Cc2ccccc2)CC1
10[16.7 µM]	CCCN1[C@@H]2Cn3c(ccc(-c4ccc(F)cc4)c3=O)[C@H]1[C@@H](C(=O)NCCOC)[C@@H]2CO
-27	C=CCNc1cccc2c1S(=O)(=O)N[C@@H](Cc1ccccc1)CO2
-30	Nc1[nH]c(C(=O)c2ccccc2)c(-c2ccncc2)c1C(=O)NCc1ccc(Cl)cc1

3 compounds out of the list above, arranged by the value under Env fusion inh, highest first:
Env fusion inh	structure
-27	C=CCNc1cccc2c1S(=O)(=O)N[C@@H](Cc1ccccc1)CO2
-30	Nc1[nH]c(C(=O)c2ccccc2)c(-c2ccncc2)c1C(=O)NCc1ccc(Cl)cc1
-74	COC(=O)C1=C(C)N(C)C(=NCc2ccc(C(F)(F)F)cc2)NC1c1ccccc1C(F)(F)F (stereo not drawn)

These rows are one share of the data; the hit share may differ from the screen's.
